STK33 inh – inhibitors of purified STK33 kinase, primary screen, biochemical, ADP-Glo luminescence, homogeneous, cell-free; hit rate 0.073% among 320,000; AID 2661, 2010; Serine/threonine-protein kinase 33 (Homo sapiens), Q9BYT3; inhibition, % at 10 µM; MBP phosphorylation;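 active = inhibition at or above 25%, using the most active replicate where run in duplicate; inactive = inhibition below 25%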
Target sequence (Q9BYT3 whole entry, looked up): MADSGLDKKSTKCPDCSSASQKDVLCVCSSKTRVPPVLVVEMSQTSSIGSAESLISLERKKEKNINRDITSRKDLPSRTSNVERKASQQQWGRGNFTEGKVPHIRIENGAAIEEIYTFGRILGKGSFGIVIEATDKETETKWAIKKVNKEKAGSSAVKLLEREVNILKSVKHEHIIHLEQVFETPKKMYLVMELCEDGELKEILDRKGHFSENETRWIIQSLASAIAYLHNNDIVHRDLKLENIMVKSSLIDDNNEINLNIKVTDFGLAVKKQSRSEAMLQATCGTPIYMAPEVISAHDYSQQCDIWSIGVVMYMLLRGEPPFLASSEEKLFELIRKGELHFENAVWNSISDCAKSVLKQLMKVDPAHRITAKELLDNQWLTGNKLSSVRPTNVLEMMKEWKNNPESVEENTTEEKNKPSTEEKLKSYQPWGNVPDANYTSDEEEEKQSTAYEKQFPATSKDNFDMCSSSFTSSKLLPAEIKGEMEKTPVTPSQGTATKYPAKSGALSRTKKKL
* marks the source's active call; other numbers are inactive results; & = joins results of further samples. The list is partial; most or all hits stand in other tables.

item | structure | STK33 inh
1 | Cc1cccc(C)c1NC(=O)CSc1ccc([N+](=O)[O-])cn1 | -1.4
2 | O=C(NCc1ccccc1Cl)c1ccc(NC2=NC3CS(=O)(=O)CC3S2)cc1 (configuration not stated) | -0.9
3 | CCOC(=O)CSc1nc(-c2ccccc2)nc2c1oc1ccccc12 | -0.8
4 | CCC(C)NCCCCOc1ccc(Cl)cc1C (configuration not stated) | 0.3
5 | O=C(CSc1ccc(-c2ccco2)nn1)Nc1ccccc1 | 0.9
6 | Cc1[nH]nc2ncc(C(=O)c3ccccc3O)cc12 | 8.0
7 | O=[N+]([O-])c1ccccc1Oc1cnc2ccccc2n1 | 0.5
8 | N#Cc1ccc(OCCN2CCc3ccccc3C2)cc1 | 0.5
9 | COCC(=O)N1CCC(Oc2ccc(C(=O)NCc3cc(C)no3)cc2)CC1 | 0.8
10 | Cn1c(N)c(C(=O)COC(=O)CN2C(=O)c3ccccc3C2=O)c(=O)n(C)c1=O | 1.7
11 | COc1ccccc1/C=N/NC(=O)c1ccccc1Cl | 0.9
12 | COc1ccc(CNC(=O)C(=O)NCC2OCCN2S(=O)(=O)c2ccc(OC)c(OC)c2)cc1 (configuration not stated) | 0.4
13 | COc1ccc(-c2cc(C)no2)cc1S(=O)(=O)NCc1cccc(C)c1 | -2.2
14 | COc1cccc(CNCc2ccc(SC)cc2)c1OC | 0.1
15 | COc1cccc(-c2cc(C(=O)N3CCCCC3C)no2)c1 (configuration not stated) | 0.3

Another view of part of the listing above.
3) CCOC(=O)CSc1nc(-c2ccccc2)nc2c1oc1ccccc12
  STK33 inh: -0.8

4) CCC(C)NCCCCOc1ccc(Cl)cc1C (configuration not stated)
  STK33 inh: 0.3

5) O=C(CSc1ccc(-c2ccco2)nn1)Nc1ccccc1
  STK33 inh: 0.9

6) Cc1[nH]nc2ncc(C(=O)c3ccccc3O)cc12
  STK33 inh: 8.0

(cont.)
item | structure | STK33 inh
16 | Cc1cccc(NC(=O)CS(=O)(=O)c2cn(CC(=O)N3CCOCC3)c3ccccc23)c1 | -0.4
17 | CCCc1nnc(SCC(=O)N2CCOCC2)n1Cc1ccco1 | -1.7
18 | Cc1ccccc1COC(=O)CCCC1=NS(=O)(=O)c2ccccc2N1 | -1.0
19 | O=C(N/N=C/c1ccccn1)C12CC3CC(CC(C3)C1)C2 | 0.3
20 | COc1ccc(C(=O)NNC2=NS(=O)(=O)c3ccccc32)cc1OC | -0.6
21 | CCOC(=O)C1CCCN(C(=O)CNC(=O)c2nn(-c3ccc(OC)c(Cl)c3)c(=O)c3ccccc23)C1 (configuration not stated) | -0.2
22 | Cc1cc(Cl)c(S(=O)(=O)N2CCCC2)cc1OCC(=O)NC1CCCCC1 | -0.8
23 | CCOC(=O)C1=C(C(C)=O)C(c2cccnc2)C(C#N)=C(N)O1 (configuration not stated) | 0.2
24 | COc1ccc2[nH]c3c(=O)n(CCCCC(=O)NCCC(C)C)c(=S)[nH]c3c2c1 | -0.8
25 | CC1=NN(c2ccc([N+](=O)[O-])cc2)C(=O)/C1=C\N(C)C | 0.2
26 | NC(=O)CSc1nc(-c2ccccc2)nc2c1CCCC2 | -3.0
27 | CCN1CCCn2c1nc1c2c(=O)n(C)c(=O)n1C | -1.0
28 | COc1ccc(NC(=S)NNC(=O)Cn2nc([N+](=O)[O-])cc2C)cc1 | 0.3
29 | C=CCNc1nc(C(=O)OCC(=O)c2ccc(OC)cc2OC)cs1 | -0.5
30 | OC(COc1ccc(-c2ccccc2)cc1)CN1CCOCC1 (configuration not stated) | -0.5

Reformatted with the structure last: entries from further up
No. | STK33 inh | SMILES
16 | -0.4 | Cc1cccc(NC(=O)CS(=O)(=O)c2cn(CC(=O)N3CCOCC3)c3ccccc23)c1
18 | -1.0 | Cc1ccccc1COC(=O)CCCC1=NS(=O)(=O)c2ccccc2N1
19 | 0.3 | O=C(N/N=C/c1ccccn1)C12CC3CC(CC(C3)C1)C2
20 | -0.6 | COc1ccc(C(=O)NNC2=NS(=O)(=O)c3ccccc32)cc1OC

More entries.
item | structure | STK33 inh
31 | CCCc1cc(=O)oc2cc(C)cc(OC(C)C(=O)NCc3cccnc3)c12 (configuration not stated) | -1.5
32 | Cc1cccn2c(=O)c(C(=O)NC3CCCCC3)c(O)nc12 | -1.5
33 | CCN(CCO)C(=S)Nc1cc(C(=O)OC)ccc1C(=O)OC | -0.5
34 | Cc1nnc(SCC(=O)Nc2ccc(-c3nc4ccccc4s3)cc2)s1 | -0.4
35 | CCCCOCCCNC(=O)c1ccc2c(c1)OCO2 | -5.7
36 | CN(C)Cc1c(C(=O)N/N=C/C=C/c2ccccc2)nnn1-c1nonc1N | -0.3
37 | CN(C(=O)c1ccc(Cl)c([N+](=O)[O-])c1)C1(C)CCS(=O)(=O)C1 (configuration not stated) | 0.4
38 | CCOC(=O)c1[nH]c2ccc(OC)cc2c1NC(=S)N1CCN(c2ccc(F)cc2)CC1 | -1.7
39 | COc1ccc(-c2nnc(N(C)C(=O)c3ccco3)s2)cc1OC | -1.4
40 | Cc1ccc(NC(=O)c2ccc3c(c2)OCO3)cc1Cl | -1.9
41 | O=C(COC(=O)c1ccc(-c2nnc(-c3ccccc3)o2)cc1)c1ccccc1 | 0.2
42 | COc1ccccc1NC(=O)C1CCCN(S(=O)(=O)c2ccc3[nH]c(=O)ccc3c2)C1 (configuration not stated) | -1.4
43 | CC(C)CC(=O)N1CCN(CC2CC=CCC2)CC1 (configuration not stated) | 6.5
44 | Cc1nnsc1S(=O)(=O)Cc1ccccc1Cl | -1.9
45 | O=C(CSc1nnc(NC(=O)c2ccc(F)cc2F)s1)NC1CC1 | -1.4

Exported as labelled records: part of the list above
33: CCN(CCO)C(=S)Nc1cc(C(=O)OC)ccc1C(=O)OC
  STK33 inh: -0.5

34: Cc1nnc(SCC(=O)Nc2ccc(-c3nc4ccccc4s3)cc2)s1
  STK33 inh: -0.4

Following part.
item | structure | STK33 inh
46 | COCCNC(=O)Cn1nc(C)c2ccccc2c1=O | -0.9
47 | O=c1[nH]c(/C(Cl)=C/c2c(F)cccc2Cl)nc2cc(Cl)ccc12 | -1.0
48 | CCc1ccccc1NC(=O)/C(=C/c1ccccc1)c1ccccc1 | 0.5
49 | Cc1cc(C)n2nc(SCC(N)=O)nc2n1 | -1.6
50 | CN1CCN(C(=O)c2cn(-c3ccccc3)nc2-c2cccnc2)CC1 | -0.9
51 | O=C(Nc1ccc(Cl)cc1)C1CCN(C(=O)NC2CCCCC2)CC1 | -3.9
52 | C=CCn1cccc(C(=O)Nc2ccc(C)c(C)c2)c1=O | 0.7
53 | COc1ccc(OC)c(CN2CCN(S(=O)(=O)c3ccccc3)CC2)c1 | 1.4
54 | Cc1ccc(-n2cc(C(=O)c3ccc(N4CCN(C)CC4)cc3)nn2)cc1Cl | 0.1
55 | Cc1ccc2nc(NC(=O)c3ccc(Br)o3)sc2c1 | 1.4
56 | COc1ccc(OC)c(C(=O)c2ccc(C(=O)Nc3ccccc3)cc2)c1 | 0.2
57 | CC(C)c1cc(CNC(=O)C2CCC(=O)N(Cc3ccccc3F)C2)on1 (configuration not stated) | -1.0
58 | CC(=O)O[C@]1(C(C)=O)CC[C@H]2[C@@H]3C[C@H](C)C4=CC(=O)CC[C@]4(C)[C@H]3CC[C@@]21C | -0.6&-0.5
59 | Nc1nc(SCC(=O)N2CCc3ccccc32)[nH]c(=O)c1-c1ccccc1 | 0.9
60 | O=C1CCCC/C1=C/NCc1ccccc1 | -0.8
61 | CC(C(=O)N1CCN(Cc2ccc3c(c2)OCO3)CC1)n1cc([N+](=O)[O-])cn1 (configuration not stated) | -1.3
62 | Cc1ccc(-c2nn(CC(=O)Nc3ccc4c(c3)nc3n4CCOC3)c(=O)c3ccccc23)cc1 | -0.6
63 | CCOC(=O)c1c(C)nc2sc(C(N)=O)c(N)c2c1-c1ccccc1 | 0.8
64 | CCN(C(=O)CN1C(=O)S/C(=C\c2cccc(Cl)c2)C1=O)C1CCS(=O)(=O)C1 (configuration not stated) | -0.4
65 | CCCCc1ccc(NC(=O)CSc2nc(=O)n(CCN(CC)CC)c3c2CCC3)cc1 | -1.1
66 | CC(=O)c1sc(Nc2nc3ccc(F)cc3s2)nc1C | 1.6
67 | COc1cc(NC(=O)c2ccc(Cl)cc2)c(OC)cc1Cl | -0.1
68 | Cn1c(CN2CCN(C(=O)c3ccco3)CC2)nc2cc([N+](=O)[O-])ccc21 | -2.2
69 | O=C(NC1CCN(C(=S)NCc2ccco2)CC1)NC12CC3CC(CC(C3)C1)C2 | -0.8
70 | N=c1c(S(=O)(=O)c2ccc(Cl)cc2)cc2c(=O)n3ccccc3nc2n1Cc1cccnc1 | 1.1
71 | Cc1cc(C(=O)N2CCCC(N3CCN(c4ccccc4C)CC3)C2)nc(C)n1 (configuration not stated) | -0.6
72 | O=C(O)CN1CCN(Cc2ccccc2Cl)C1=O | -0.7
73 | COC(=O)CN1C(=S)N(C)C(=O)C1CC(=O)Nc1ccccc1 (configuration not stated) | -0.3
74 | CCCNC(=O)c1ccc(N2CCC3(CC2)CC(c2cccc(Br)c2)=NO3)c(NC(=O)c2ccc(Br)cc2)c1 | -0.4
75 | Cc1sc2c(c1C)C(=O)NC(c1cccc(O)c1)N2 (configuration not stated) | 1.0
76 | CCOc1cc(/C=C2\C(=N)N3N=C(S(C)(=O)=O)SC3=NC2=O)ccc1OCCOc1cccc(OC)c1 | 1.2
77 | COc1ccc2c(c1)C1C=CCC1C(c1cc3c(cc1Br)OCO3)N2 (configuration not stated) | -1.2
78 | Cc1ccc(-c2cc3nc(-c4ccccc4)cc(N)n3n2)cc1 | -0.4
79 | CC(=O)Nc1ccc(OCC(=O)NC(C)C(C)C)cc1 (configuration not stated) | -0.9
80 | O=[N+]([O-])c1ccc(S(=O)(=O)Nc2nc3ccccc3nc2Nc2ccccc2)cc1 | 3.1
81 | CCCCc1nc2ccccc2[nH]1 | -1.6
82 | O=C(CSc1nnc(CN2CCOCC2)n1-c1ccc(Cl)cc1)N1CCc2ccccc21 | -0.8
83 | COC(=O)C1=C(Nc2ccc(OC)cc2)C=C(C)C(C(=O)OC)C1c1ccc(C)cc1 (configuration not stated) | 0.4
84 | CCOc1cccc(N2C(=O)CC(N3CCN(c4nc5ccccc5s4)CC3)C2=O)c1 (configuration not stated) | -0.6
85 | O=C1C(=O)N(CCCN2CCOCC2)C(c2ccc(F)cc2)/C1=C(\O)c1ccc2c(c1)OCCO2 (configuration not stated) | -1.7
86 | Cc1cc(C)cc(N(CC(=O)NC2CC3CCC2C3)S(C)(=O)=O)c1 (configuration not stated) | -3.4
87 | O=C1CN(C(=O)COC(=O)c2ccc[n+]([O-])c2)c2ccccc2N1 | -3.5
88 | CCOC(=O)CCc1c(C)c2ccc(OCc3nn[nH]n3)c(C)c2oc1=O | -0.5
89 | O=C(NC(=S)Nc1cccc(Cl)c1Cl)C1CC1 | 0.2
90 | CC(C)(CNC(=O)Cc1ccc(NS(=O)(=O)c2cccc(C(F)(F)F)c2)cc1)N1CCOCC1 | 0.3
91 | CSc1ccc(CN2CCC(N3CC(C)OC(C)C3)CC2)cc1 (configuration not stated) | -0.4
92 | CCOC(=O)c1nnn(CC(=O)N2N=C(c3cc(C)ccc3C)CC2c2ccc(OC)cc2)c1C(=O)OCC (configuration not stated) | 0.3
93 | CC1CCCC(NC(=O)CCS(=O)(=O)c2cc3c(cc2Cl)NC(=O)CO3)C1C (configuration not stated) | -0.4
94 | COc1cccc2cc(C(=O)C3=C(O)C(=O)N(CCN4CCOCC4)C3c3cccs3)oc12 (configuration not stated) | -2.9
95 | O=C(NCc1ccc(F)cc1)N[C@@H](Cc1ccccc1)C(=O)O | 1.1
96 | COCCN(CC1CCCN(C2Cc3ccccc3C2)C1)C(=O)CCC(N)=O (configuration not stated) | -7.0
97 | Cc1ccc(NC(=O)C2OCCc3ccccc32)cc1Cl (configuration not stated) | 1.0
98 | Cc1ccccc1NC(=O)c1ccccc1NS(=O)(=O)c1cccc2cccnc12 | -0.4
99 | COc1ccc(Cn2c(C3CC3)nc3ccc(NC(=O)C4CC4)cc3c2=O)cc1 | -0.3
100 | COc1cc(OC)c(C2C(C(=O)O)c3ccccc3C(=O)N2C)cc1OC (configuration not stated) | -1.0
101 | CCOC(=O)c1c(C)[nH]c(C)c1C(=O)CSc1nncs1 | 1.6
102 | COC(=O)c1ccc(NC(=O)C(=O)N2CCN(C(=S)Nc3cccc(C)c3C)CC2)cc1 | -2.8
103 | O=C(NC(=S)Nc1cccc(F)c1)c1cccc([N+](=O)[O-])c1 | 0.0
104 | CCCN1CCC2(CC1)C(C#N)=C(N)Oc1c2sc2nc(C)cc(C)c12 | -0.8
105 | O=C(COC(=O)c1ccccc1)Nc1ccccc1N1CCOCC1 | -0.9

Remaining list, next part.
item | structure | STK33 inh
106 | Cc1cc2cc(CCNC(=O)c3ccc(S(=O)(=O)N4CCOCC4)cc3)c(=O)[nH]c2cc1C | -1.1
107 | COc1cc(OC)c(C(=O)CCC(=O)O)cc1OC | 7.6
108 | COc1ccc(C(=O)CSc2nnc(Cc3ccccc3)o2)cc1 | -1.5
109 | COc1cc(/C=C2/C(=N)N3N=C(CC(=O)N4CCOCC4)SC3=NC2=O)ccc1OC(C)c1ccccc1 (configuration not stated) | -1.3
110 | COC(=O)c1cc(C(=O)NCCN2C(=O)S/C(=C\c3cccs3)C2=O)cc([N+](=O)[O-])c1 | -2.6
111 | CCOc1ccc(OCC)c(NC(=O)C2CCCN(S(=O)(=O)c3c(C)n[nH]c3C)C2)c1 (configuration not stated) | 0.1
112 | CCOC(=O)NC(=O)COC(=O)CNC(=O)c1ccc(OCC)c(OCC)c1 | -2.0
113 | COc1ccc(OC)c(C2C3=C(CCCC3=O)Nc3c2c(=O)n(C)c(=O)n3C)c1 (configuration not stated) | -1.0
114 | CCNC(=O)CSc1nnc(-c2ccc(OC)cc2)n1CC(C)C | 0.0
115 | COCCOC(=O)C1=C(C)NC(=O)N(C(C)=O)C1c1ccc(Cl)cc1 (configuration not stated) | -0.6
116 | COCCNC(=O)c1noc2c1CCc1cc(OC)ccc1-2 | -1.1
